Screening data from PubChem BioAssay.
NPYLR7 ag = agonists of mosquito NPYLR7 receptor, primary screen, cell-based, Aedes aegypti, calcium fluorescence, mosquito biting behavior; HEK293T NPYLR7/Galpha15, GCaMP6s calcium fluorescence; activation, % at 10 µM; hit rate 0.15% among 270,000; AID 1259423, 2018; in the data active means activation above about 40%;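 further: 0% = vehicle and 100% = reference agonist at the receptor; some compounds past the cut are filed as inactive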
NPYLR7 ag max-min = second read-out of NPYLR7 ag, no call of its own (marks repeat the call); activation, %; measured here: Max-Min RFU normalised activation; some inactives read as strong as hits;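 span of the calcium signal over five minutes; 0% = vehicle and 100% = native peptide agonist; compound fluorescence can raise it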
* marks the source's active call; other numbers are inactive results; & = joins results of further samples. The list is partial. The share of hits here may be higher or lower than overall.

compound	NPYLR7 ag	NPYLR7 ag max-min
O=C(Nc1ccc2c(c1)OCCO2)c1cc2cc(Br)ccc2oc1=O	2	-1
Cc1ccc(-n2cccn2)c(CNC(C)c2cnn(-c3cccc(F)c3)c2C)c1 (stereo not drawn)	8	4
CCc1nc(CN(C)C(=O)C2(Oc3ccc(C)cc3)CCNCC2)no1	8	7
CC(C)(C)C(=O)N1CC(=O)N(CCCc2ccccc2)CC(O)C1 (stereo not drawn)	0	6
CC(C)n1c(=O)c(C(=O)NCCSCc2ccccc2)cc2cccnc21	-5	-17
NC1=NC(=O)C(=Cc2ccc(Cl)cc2)S1	1	19
CCC(CC)N(C(=O)CN1CSCC1=O)c1ccc(C)c(C)c1	-6	-11
CCOc1ccc(Nc2oc(-c3ccc(COc4ccc(OC)cc4)o3)nc2C#N)cc1	0	4
COCCCN(Cc1c(-c2ccc(F)cc2)noc1N1CCOCC1)C(=O)c1ccco1	7	8
CC(C(=O)NCC(=O)Nc1cccnc1)c1cc2ccccc2o1 (stereo not drawn)	3	1
COc1ccc(-c2cc(CNC(=O)c3ccc(S(=O)(=O)N(C)C)cc3)no2)cc1	3	2
Cc1cccc(N2C(=O)N(c3ccccc3)C3CS(=O)(=O)CC32)c1 (stereo not drawn)	-2	-3
Cn1cc([N+](=O)[O-])cc1C(=O)NCC(=O)O	-1	1
CC1=NOC(C(=O)N2CCOc3c(O)cc(-c4ccc(C)s4)cc3C2)C1 (stereo not drawn)	2	-1
CC1Cc2nc(SCC(=O)NCc3ccc(F)cc3)n(Cc3ccccc3)c(=O)c2S1 (stereo not drawn)	0	-5
COc1ccnc(NNC(=O)c2ccc(Cl)cc2F)n1	8	5
Cc1ccc(-n2nnnc2SCC(=O)NC(=O)NC(C)C)c(C)c1	-1	-3
Cc1cccc(OCC(=O)NCC(=O)N=Nc2c(O)[nH]c3ccccc23)c1	-13	-19
CCCC(=O)Nc1cccc(C(=O)NC(C)(C)CN2CCCC2)c1	5	-1
O=C(Cn1cc(C(F)(F)F)cc(Cl)c1=O)NNC(=O)c1cccs1	-6	-10
O=C(CCc1cccc(Cl)c1Cl)Nc1ccc2oc(=O)[nH]c2c1	5	2
CSC1=NC(C)(C)CC12C=CC(=O)c1ccccc12 (stereo not drawn)	-4	-10
O=C(c1cc(F)cc(F)c1)N1CCN(Cc2ccc(-c3noc(-c4cccnc4)n3)cc2)CC1	5	5
Cc1cc(-c2ccccc2Cl)nc(N)n1	-2	-7
CN(C)CC1(O)CCCN(C(=O)c2ccccc2-c2ncn[nH]2)C1 (stereo not drawn)	-3	-8
COc1cccc(/C=C2\C(=O)N(c3ccccc3)N=C2C)c1OC	13	15
CC1(C)CNC(=O)c2nc(C3OCCc4ccccc43)[nH]c2C1 (stereo not drawn)	3	4
CCn1cc(Cn2ccnc2-c2cccc(Cn3cccn3)c2)cn1	4	1
Cc1ccc(-c2ccc(CCC(=O)NCC3CCCO3)n2-c2ccc(CC#N)cc2)c(C)c1 (stereo not drawn)	-6	-7
C#CC1(O)CC[C@H]2[C@@H]3CCC4=CCCC[C@@H]4[C@H]3CC[C@@]21C (stereo partly drawn)	1	-3
CN(C)c1ccc(/C=C/C=N\OC(=O)c2ccccc2)cc1	-6	-10
O=C(c1ccc(F)cc1)N1CCN(c2cc(Oc3ccc(F)c(Cl)c3)ncn2)CC1	2	2
C=c1cc(C)n(CC(=O)Nc2ccc(C)c(C)c2)c(=O)c1=C1N=C(c2ccc3c(c2)OCO3)NO1	0	-5
Cc1ccc2nc(Sc3cc(NCCCO)c([N+](=O)[O-])c4nonc34)[nH]c2c1	-2	-3
CN1CCN(C(=O)c2csc(COc3ccc4c(c3)OCO4)n2)CC1	-4	-4
CC1CN(C(=O)CCCSc2nnc(-c3ccccc3Cl)n2-c2ccccc2)CCN1C(=O)c1cccc(C(F)(F)F)c1 (stereo not drawn)	-5	3
CN1C(=O)NC(c2cccc(OCc3ccccc3)c2)C2=C1CN(CCN1CCOCC1)C2=O (stereo not drawn)	6	13
COC(=O)C1=CN(C(C)c2ccccc2)C=C(C(=O)OC)C1c1ccccc1Cl (stereo not drawn)	2	1
COCCc1noc(C2CCCS2)n1 (stereo not drawn)	18	11
CC(=O)N1CCN(C(=S)NC2CC3CCC2C3)CC1 (stereo not drawn)	21	15
COc1ccc(COCC2CO2)cc1 (stereo not drawn)	10	4
CCCCC(=O)Nc1sc(SCC(N)=O)nc1-c1ccccc1	-9	-13
COc1cccc(-c2cc(C(=O)N3CCN(C(=O)c4ccccc4)CC3)c(C)n2-c2ccccc2)c1	10	4
Cc1ccc(NC(=O)OC(C)(C)C)c(OCc2nc(C(C)C)no2)c1	-5	-6
N#Cc1c2n(c(=O)n(CC(=O)NC(=O)NC3CCCCC3)c1=O)CCC2	9	7
N[C@@H]1CC[C@@H](NC(=O)CCCn2cnnn2)C1	3	1
C/C=C/C(=O)Nc1sc([C@@H](C)CCC=C(C)C)cc1C(=O)OCC	11	5
Cn1c(=O)n(Cc2ccccc2)c(=O)c2c1nc(Br)n2Cc1ccccc1	6	11
CCn1nccc1NC(=O)c1cccnc1Nc1cc(Cl)cc(Cl)c1	-5	-15
CN1CCN(c2ncnc3c2oc2ccc(Cl)cc23)CC1	11	5
Cc1ccc(N2C(=O)C3C4C=CC(C4)C3C2=O)cc1C (stereo not drawn)	-13	-16
CN1CCN(C(=O)C2CNCCN2C(=O)c2cc3ccccc3s2)CC1 (stereo not drawn)	9	7
COc1cccc(C(=O)NCCn2ncc3c(=O)n(Cc4ccc(C)cc4)cnc32)c1	-3	-5
CN(C)CCCN=c1c2ccccc2n(C)c2[nH]c(=O)n(C)c(=O)c12	-1	-7
Cc1ccc(N(CC(=O)NC(C)C)CC(=O)N2CCCCC2)cc1	11	1
COCCN1CCN(C(=O)CN2CC3=C(C2=O)C(c2ccccc2Cl)NC(=O)N3C)CC1 (stereo not drawn)	-1	10
CCCSc1ncccc1C(=O)N(Cc1nc2cc(C)ccc2o1)C1CCCCC1	4	-1
Cc1cccc(C(=O)NC(C(=O)NC2CC2)C2CCN(C(=O)CCc3ccccc3)CC2)c1 (stereo not drawn)	5	2
CCOC(=O)N1CCN(C(=O)c2ccc(OC)c(Br)c2)CC1	15	11
O=C(NCc1ccncc1)C1CC(c2ccccc2F)=NO1 (stereo not drawn)	-5	-1

Continuation.
compound	NPYLR7 ag	NPYLR7 ag max-min
O=C(Nc1cnn(CCN2CCOCC2)c1)c1cccc(F)c1	5	2
CCc1cc(CN2CCC(N3CCCC(C(=O)N4CCOCC4)C3)CC2)[nH]n1 (stereo not drawn)	11	10
CC(=O)Nc1nnc(-c2ccc3c(c2)OCO3)s1	6	4
CCN(CC)c1ncccc1CNC(=O)CN1CC(=O)NC1=O	7	1
O=C(NC1CCN(c2ccccc2C(=O)NCC2CCCO2)CC1)c1ccco1 (stereo not drawn)	-3	0
Fc1ccc(Oc2cc(N3CCC(Cc4ccccc4)CC3)ncn2)cc1Cl	-16	-15
CCN(Cc1ccccc1)c1ccc(S(=O)(=O)N2CCN(C)CC2)cc1[N+](=O)[O-]	-5	-6
O=C(NCc1c(F)cccc1OC(F)F)N1CCOCC1	-4&2	-4&2
O=C(CN1C(=O)c2ccccc2C1=O)NCC(=O)OCC(=O)c1ccc([N+](=O)[O-])cc1	3	10
CCc1nc2cc(C(=O)N(CC3CC3)CC3CCCO3)cc(NC(=O)c3ccccc3OC)c2n1C (stereo not drawn)	7	7
Cc1cc(C)n(C2CCN(Cc3nc(-c4ccc(Cl)cc4)no3)C2)n1 (stereo not drawn)	6	4
Cc1nnc(SCC(=O)N2CCN(S(=O)(=O)c3ccccc3)C2C(C)C)[nH]c1=O (stereo not drawn)	-2	-7
CC1(C)O[C@@H]2C[C@@](OCc3ccc(C#N)cc3)(C(=O)NCCN3CCOCC3)CC(OCc3cccc(F)c3F)[C@@H]2O1 (stereo partly drawn)	2	8
CCOc1ccc(CCNS(=O)(=O)C2CC3CCC2C3)cc1OCC (stereo not drawn)	7	10
CCOC(=O)C1CCN(C(=O)c2coc(CN(CCN3CCOCC3)Cc3cccc(OC)c3)n2)CC1	9	22
CC(CC12CC3CC(CC(C3)C1)C2)=NNC(=O)C1CC1	-2	42
CN1C(=S)N(c2ccc3c(c2)OCO3)C(=O)/C1=C\c1cccc(OCCO)c1	34	31
COC(=O)c1ccc(C(=O)NC2CC3CCC(C2)N3Cc2ccc(OC)cc2OC)cc1 (stereo not drawn)	1	7
Cc1nc2c(c(N(C)C)n1)CCN(C(=O)c1c(C)[nH]c3c1C(=O)CCC3)C2	5	3
Cc1ccc(Nc2cc(C)nc(N3CCN(C(=O)c4ccc5ccccc5c4)CC3)n2)cc1	12	1
CC(=O)NCCNC(=O)CC1(C)N=C(c2ccccc2)N(C)O1 (stereo not drawn)	-2	-2
CCN(Cc1cnn(C)c1)C(=O)C1CCc2ccccc2O1 (stereo not drawn)	0	16
CC1CCCCC1OCCn1c(=O)[nH]c2ccccc2c1=O (stereo not drawn)	-2	-4
CCOC(=O)CC1(NC(=O)c2cc(COc3c(F)cccc3F)on2)CCCCC1	8	-6
CCCNC(=O)Cn1cc(OC)c(=O)cc1CN1CCN(C(C)=O)CC1	-3	-4
N#C/C(=N\Nc1ccc(Cl)cc1)c1nc2ccccc2s1	-2	-7
COc1ccc(C(=O)N(Cc2cccc(C)c2)[C@@H]2CCCCC2NC(=O)[C@H]2CCCN2C(=O)COc2ccccc2)cc1 (stereo partly drawn)	-4	1
Cc1cnc(SCCN2CCOCC2)nc1C1CCCN(C(=O)/C=C/c2ccccn2)C1 (stereo not drawn)	24	11
CO[C@H]1CN(c2nc(-c3ccccc3)nc3c2CCC3)CC[C@H]1N	-2	-7
COc1cccc(C(O)c2ncc(-c3cccc4ccccc34)[nH]2)c1 (stereo not drawn)	-1	-2

In another format: results already given
Cc1nc2c(c(N(C)C)n1)CCN(C(=O)c1c(C)[nH]c3c1C(=O)CCC3)C2
  NPYLR7 ag = 5; NPYLR7 ag max-min = 3
CCN(Cc1ccccc1)c1ccc(S(=O)(=O)N2CCN(C)CC2)cc1[N+](=O)[O-]
  NPYLR7 ag = -5; NPYLR7 ag max-min = -6
CCc1cc(CN2CCC(N3CCCC(C(=O)N4CCOCC4)C3)CC2)[nH]n1 (stereo not drawn)
  NPYLR7 ag = 11; NPYLR7 ag max-min = 10
CC1(C)O[C@@H]2C[C@@](OCc3ccc(C#N)cc3)(C(=O)NCCN3CCOCC3)CC(OCc3cccc(F)c3F)[C@@H]2O1 (stereo partly drawn)
  NPYLR7 ag = 2; NPYLR7 ag max-min = 8

Additional entries:
compound	NPYLR7 ag	NPYLR7 ag max-min
Cc1ccc(-c2csc(NC(=O)c3ccc(F)cc3)n2)cc1	-8	-10
Cc1cccc(-c2nc3c(Nc4ccccc4)nccc3[nH]2)c1	-7	-11
COCCNC(=O)CN1CN(c2ccccc2)C2(CCN(C(=O)c3cccs3)CC2)C1=O	8	17
CCOC(=O)C(C)c1n[nH]c(=O)c2ccccc12 (stereo not drawn)	-1	-7
COc1ccc(-c2nn(-c3cc(C)ccc3C)c(OC(C)=O)c2-c2ccc(NC(=O)Nc3cccc(Cl)c3)cc2)c(OC)c1	-2	5
Cc1c(C)c(C)c(C(=O)OCC(=O)NC(=O)NC(C)(C)C)c(C)c1C	1	9
Cc1n[nH]c(C)c1CNc1ccc(-c2nc(-c3ccccc3F)no2)cn1	5	10
COCCNc1nc(Nc2ccc(OC)cc2)c2cnn(-c3ccccc3)c2n1	3	1
O=C(Oc1ccc(-c2nc3ccc(Br)cn3c2NC2CCCCC2)cc1)c1cccc(C(F)(F)F)c1	-8	-6
O=C1C2C3C=CC(C3)C2C(=O)N1c1cccc(C(F)(F)F)c1 (stereo not drawn)	12	11
O=C(c1ccc[nH]1)N1CCCC(N2CCCC2=O)C1 (stereo not drawn)	-5	-5
COc1cc(CN2CCOc3ccc(C(O)Cc4ccccc4)cc3C2)cc2c1OCO2 (stereo not drawn)	4	-1
CC(=O)Nc1ccc2c(c1)sc(=NC(=O)c1ccc3c(c1)OCCO3)n2C	-1	71
CC1=C(C(=O)NC2CC(=O)N(CCc3ccccc3)C2)OCCO1 (stereo not drawn)	-1	-4
Cc1cc(C)cc(N2CCN(C(=O)c3ccc(C)[nH]c3=O)CC2=O)c1	12	-4
COc1cc(CN(C)C(=O)c2cc(N3CCc4ccccc4C3)nc3ccccc23)cc(OC)c1OC	1	-2
CCCn1cc(NC(=O)C(C(C)C)N2CC(C)OC(C)C2)ccc1=O (stereo not drawn)	-5	21
CCOCCNC(=O)Nc1cc(F)c(N2CCCC2)c(F)c1	11	9
CCCC(=O)N1CCC1(C)C(=O)Nc1ccc2nc(C)ccc2c1 (stereo not drawn)	3	0
Cc1ccc(C2CC(C(F)(F)F)n3ncc(C(=O)Nc4ccccc4C(F)(F)F)c3N2)cc1 (stereo not drawn)	2	0
CC1NCCN(c2ccc(Cl)cc2Cl)C1=O (stereo not drawn)	-1	3

Single records, as listed above.
`CN(C)CC1(O)CCCN(C(=O)c2ccccc2-c2ncn[nH]2)C1` (stereo not drawn) reads NPYLR7 ag = -3; NPYLR7 ag max-min = -8
`CCOC(=O)C1CCN(C(=O)c2coc(CN(CCN3CCOCC3)Cc3cccc(OC)c3)n2)CC1` reads NPYLR7 ag = 9; NPYLR7 ag max-min = 22
